# Screening results as filed in PubChem.
# gsp ag: qHTS for Agonist of gsp, the Etiologic Mutation Responsible for Fibrous Dysplasia/McCune-Albright Syndrome: qHTS. Potency, µM (highest dose often 76.9 µM), without a hit: at the top dose activation (cAMP increase), actives largely listed as activators. 340,000 tested, 0.13% active. AID 624287, 2012. gsp mutant cells, cAMP HTRF, 30 min; control for the full effect not named in the record; active = well fitted activation curve with a large enough effect; inconclusive = small, poorly fitted or top-dose-only effect, or another doubt; inactive = no such curve, though single readings can be large or run the other way; cell line not stated here;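 also: phosphodiesterase inhibitor Ro 20-1724 added with compounds to block cAMP breakdown; potency is read from the fitted curve at half-maximal effect; nearly all actives have a fitted effect of over 60% in size; about a fifth of the inactives were tested at one dose only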
#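 Cells stably selected in G418 were plated at 2000/well, grown 16-24 hr, then given compounds in DMSO with the PDE inhibitor […] (300 uM solution added) for 30 min at 37C; cAMP was read by HTRF.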
# TRPV1 PAM: HTS Assay for Compounds that Act as Potentiators of the Vanilloid Receptor 1. 320,000 tested, 0.02% active. potentiation, % at 8.33 µM. TRPV1-expressing cells, Fluo-8 calcium influx, capsaicin EC20 potentiation; host cell line not named in the record; control for the full effect not named in the record. AID 540277, 2011; active means potentiation above 80%; inconclusive means 30% to 80%; inactive means below 30%; also: 0% is about no effect
#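 Fluo-8 calcium influx in TRPV1-expressing cells, kinetic read (ex 480/em 520 nm). Compound added and read 3 min for agonist activity, followed by capsaicin at EC20 final and 2 min further read for enhancement.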
# Sfp PPTase inh: qHTS Assay for Inhibitors of Bacillus subtilis Sfp phosphopantetheinyl transferase (PPTase) | Biochemical Sfp PPTase activity, qHTS | Potency, µM, inactives show max response, negative = inhibition, hits mostly inhibitors | 310,000 tested, 3.5% active | AID 1490, 2009; active = well fitted inhibition curve with a large enough effect; inconclusive = small, poorly fitted or top-dose-only effect, or another doubt; inactive = no such curve, though single readings can be large or run the other way;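 also: the enzyme is Sfp with the accession as filed and its product quenches rhodamine fluorescence; potency is read from the fitted curve at half-maximal effect; 0% = enzyme reaction without inhibitor and -100% = no enzyme wells; top concentration of the series not given in the record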
#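 Sfp 15 nM + cpd, 15 min RT; start w/ rhodamine-CoA 5 uM, BHQ-2-YbbR 12.5 uM (final); 50 mM Hepes pH 7.6, 10 mM MgCl2, 0.01% NP-40, 0.01% BSA; read 525/598 nm at 0 and 30 min.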
# TRPML1 inh: qHTS for Inhibitors of the Human Mucolipin Transient Receptor Potential 1 (TRPML1); Mucolipin-1 (Homo sapiens), Q9GZU1; TRPML1-inducible cells, Ca2+ dye fluorescence, FDSS; stronger effect = lower value; inhibition of EC80 agonist-evoked calcium signal; activity change, negative = inhibition, % (test concentration not listed); 390,000 tested, 0.02% active; AID 624415, 2012; in the data active means activity change below about -50%; inconclusive means about -30% to -50%; inactive means above about -30%;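 also: stimulus is agonist 54-4 at its EC80 concentration; % is scaled to controls: 0 for no effect and ±100 for the full control effect; compound concentration not given in the record; the text of the record puts the active cut at -80%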
# Target sequence (Q9GZU1 whole entry, looked up): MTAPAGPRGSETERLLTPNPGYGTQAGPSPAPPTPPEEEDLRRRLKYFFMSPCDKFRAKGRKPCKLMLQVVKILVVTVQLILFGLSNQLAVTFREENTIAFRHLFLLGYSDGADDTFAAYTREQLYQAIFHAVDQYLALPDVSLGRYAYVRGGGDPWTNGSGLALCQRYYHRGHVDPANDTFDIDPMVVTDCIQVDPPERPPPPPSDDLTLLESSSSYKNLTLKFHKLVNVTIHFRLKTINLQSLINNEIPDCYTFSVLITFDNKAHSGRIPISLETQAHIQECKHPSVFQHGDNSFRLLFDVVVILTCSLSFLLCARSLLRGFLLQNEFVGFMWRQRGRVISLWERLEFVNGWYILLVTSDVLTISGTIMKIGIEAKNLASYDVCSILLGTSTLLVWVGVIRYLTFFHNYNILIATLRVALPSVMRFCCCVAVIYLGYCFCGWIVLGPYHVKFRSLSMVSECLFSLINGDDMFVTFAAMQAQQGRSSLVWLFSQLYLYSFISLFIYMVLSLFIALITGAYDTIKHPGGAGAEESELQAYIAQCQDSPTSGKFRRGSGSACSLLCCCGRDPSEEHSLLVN
#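 Calcium fluorescence in TRPML1-DL cells induced overnight with Tet: a 110 s read after compound pin addition, then a 110 s antagonist read after challenge with 54-4 at 4 uM final (EC80).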
# ClpP mod: qHTS Assay for Activators of ClpP; purified B. subtilis ClpP, FRET peptide cleavage, 20 min; Potency, µM (top dose mostly 57.5 µM), without a hit: at the top dose activity change, negative = active; 340,000 tested, 1.9% active; AID 651965, 2013; active = well fitted falling curve with a large enough effect; inconclusive = small, poorly fitted or top-dose-only effect; inactive = no such curve, though single readings can be large or run the other way; also: potency is read from the fitted curve at half-maximal effect; the source files actives as falling curves though it sought activators and does not explain the sign; nearly all actives have a fitted effect of over 65% in size; many hits overshoot -100%
# Target sequence (P80244 whole entry, looked up): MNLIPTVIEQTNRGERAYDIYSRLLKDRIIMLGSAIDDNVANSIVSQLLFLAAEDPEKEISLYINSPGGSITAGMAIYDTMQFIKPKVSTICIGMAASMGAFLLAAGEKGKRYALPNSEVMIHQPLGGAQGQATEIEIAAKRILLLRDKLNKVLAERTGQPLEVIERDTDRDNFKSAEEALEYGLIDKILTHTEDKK
#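 Purified B. subtilis ClpP, 10 microg/mL final in Tris/HCl pH8 with KCl, BSA, glycerol and Tween-20, cleaved an Abz/nitrotyrosine-quenched decapeptide. Fluorescence (ex 320, em 430) was read at 0 and 20 min at room temperature. Delta was normalized to 5.8 microM ADEP and DMSO/no-enzyme controls.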
# gsp antagonist: qHTS for Antagonists of gsp, the Etiologic Mutation Responsible for Fibrous Dysplasia/McCune-Albright Syndrome: qHTS | gsp-mutant cells, cAMP HTRF, 30 min; control for the full effect not named in the record | 340,000 tested, 0.4% active | Potency, µM (titrated, usually from 76.9 µM), without a hit: at the top dose activity change, negative = inhibition, actives largely listed as inhibitors | AID 624288, 2012; active = falling curve of any shape with a large fitted effect; inconclusive = falling curve, mostly with a smaller effect; inactive = flat or rising curve; cell line not stated here;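 also: intracellular cAMP measured with PDE inhibitor Ro 20-1724 present during compound exposure; potency is read from the fitted curve at half-maximal effect; % is scaled to controls: 0 for no effect and ±100 for the full control effect; nearly all actives have a fitted effect of over 65% in size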
#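 HTRF cAMP measurement after 30 min RT detection following 30 min, 37C compound treatment alongside […] (added as 300 uM solution) in G418-selected cells seeded at 2000/well and grown 16–24 h.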
# Menin MLL FP FL: qHTS Assay for Inhibitors Targeting the Menin-MLL Interaction in MLL Related Leukemias: Competition With Fluorescein Labeled MLL-derived Peptide. Fluorescence polarization, fluorescein-MLL peptide displacement from menin. FP activity change, % at 61.4 µM. 290,000 tested, under 10 active; inconclusive = falling polarisation curve, or a change in total fluorescence; inactive = total fluorescence flat and polarisation flat or rising; no compound was filed as active; the % refers to the polarisation; negative = inhibition;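 also: % of control where 0% means no effect; inhibitors lower the polarisation; unlabelled MLL peptide was the positive control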
# * marks the source's active call; other numbers are inactive results; ? = inconclusive; . = no result given; & = joins results of further samples; [ ] = remark or other dose.
# Values run as follows: gsp ag, TRPV1 PAM, Sfp PPTase inh, TRPML1 inh, ClpP mod, gsp antagonist, Menin MLL FP FL
O=C(NCc1ccccc1F)c1ccc(S(=O)(=O)NCc2ccco2)cc1
→ 24%[15.4 µM], ?, ., -6, ., 16%, .
COc1cc(Cn2c(C(=O)O)cc3sccc32)cc(OC)c1OC
→ 8%[15.4 µM], 24, -3%, 24, -0.7%, -7%, 1.0
Cn1c(SCC(=O)NCCc2ccccc2)nnc1-c1ccco1
→ -4%, 4, 20%, -7, 0.6%, -5%, 3.5
O=C1C=C(c2cccc(Cl)c2)C[C@@H](c2ccc(Cl)cc2)C1
→ -27%, -4, ., 55, -2.2%, 0%, .
Cc1ccc2oc(C(=O)Nc3ccc(S(=O)(=O)Nc4onc(C)c4C)cc3)cc(=O)c2c1
→ ?, 6, 16%, -12&-6, 0.2%&0.5%, 1%, .
N#Cc1ccc(COC(=O)c2cnc3ccccc3n2)cc1
→ 8%, 6, 20%, 19, ., 4%, 2.5
Nc1nc(-c2ccccc2)nc2nonc12
→ -29%, ., ., 15, -28%, ., .
COc1ccc(N(CC(=O)N2CCCCC2)S(=O)(=O)c2c(C)nn(C)c2C)cc1
→ -66%, ., -3%, 2, 1.0%, 5%, 2.5
O=C(Nc1cc(NC(=O)c2ccccc2F)ccc1Cl)c1ccccc1
→ -15%[15.4 µM], 4, 10%, 57, ., 1%, 4.1
C=C(C)C1Cc2c(C)nn(-c3cccc4ccccc34)c2C1 (configuration not stated)
→ -36%[inhibitor], 0, ?, -25, -11%, 2%, 2.1
O=C(Nc1ccccc1Cl)C1CCN(S(=O)(=O)c2cccc3nonc23)CC1
→ 7%[15.4 µM], 0, -13%, -6, -0.9%, 5%, -16
FC(F)(F)c1cccc(-c2cc(C3CCNCC3)[nH]n2)c1
→ -2%[15.4 µM], -9, 6%, -7, 0.1%, -15%, -2.6
CC(C)C1CC(c2csc(N)n2)CCO1 (configuration not stated)
→ -2%, 7, 9%, 1, -0.1%, 10%, 3.2
CC1CCC2(CC1)NC(CO)(CO)CO2 (configuration not stated)
→ -13%, -2, 12%, -4, -0.8%, 16%, -1.8
O=c1[nH]c(CN2CCN(c3ccc(F)cc3)CC2)nc2ccccc12
→ 8%, 0, -1%, -19, -2.9%, 2%, 5.8
COC(=O)[C@H](Cc1ccccc1)N(Cc1ccccc1)S(=O)(=O)N(Cc1ccccc1)[C@@H](Cc1ccccc1)C(=O)OC
→ ., ., ., -3, 2.5%, -5%, .
CCOC(=O)C(C#N)(Cc1ccc2ccccc2n1)Cc1ccc2ccccc2n1
→ -24%, ., ., 16, ., ?, .
CC12CCC(=O)N1C(C(=O)Nc1cccc(F)c1)CS2 (configuration not stated)
→ ?, -5, 39%[activator], 3, -3.6%, 10%, .
Cc1nc2nc3c(c(=O)n2[nH]1)CCCC3
→ 9%, 0, 0%, -3, -0.9%, 9%, -1.7
COc1cc(NS(=O)(=O)c2csc(C(N)=O)c2)cc(OC)c1
→ 2%, -10, 3%, 8, -1.7%, 7%, 2.1
COc1ccc(Cc2nnc(NC(=O)c3ccccc3F)s2)cc1OC
→ -14%, 12, 14%, ., -0.1%, -1%, -4.2
CC(C)(C)NC(=O)c1cc(NC(=O)c2ccco2)cc(NC(=O)c2ccco2)c1
→ 11%, 6, 20%, 20, -3.7%, -4%, 1.3
CCn1ncc([N+](=O)[O-])c1C(=O)Nc1cc(C)on1
→ -78%[inhibitor], 27, 2%, -3, -7.5%, 7%, .
C#CCSc1nsc(SCC#C)c1C#N
→ -25%, 13, -28%, -7, 0.6%, 0%, ?
COCCN(C(=O)C1CCC1)c1c(N)n(CC(C)C)c(=O)[nH]c1=O
→ -22%, -5, ., 5, 1.7%, 17%, .
Cc1ccc(N(Cc2cc3ccc(C)cc3[nH]c2=O)C(=O)c2ccco2)c(C)c1
→ -4%, -22, 50µM*, 2, ?, 5%, 6.8
O=C(CSc1nnc2ccccn12)N1CCOCC1
→ -10%, ., 12%, 0, ?, 14%, 5.9
Cc1ccc(CNS(=O)(=O)c2c(C(=O)N3CCCCC3)c(C)n(C)c2C)o1
→ 14%, -7, 0%, -15, 2.7%, 3%, 1.5
CCOc1ccccc1CNCc1ccc(C(=O)O)cc1
→ ?, 8, 1%, -12, ., 2%, -1.6
Cc1ccc(S(=O)(=O)N2CCCCC2)cc1C(=O)Nc1ccccn1
→ 13%[15.4 µM], 0, 2%, 17, -1.7%, 6%, .
CCN1C(=O)C(CC(=O)Nc2ccc(OC)cc2)N(Cc2ccc(OC)c(OC)c2)C1=S (configuration not stated)
→ 6%[15.4 µM], -16, 17%, -2, -0.9%, -2%, 0.3
COc1ccccc1NS(=O)(=O)c1cc(C(=O)NCC(c2cccs2)N2CCOCC2)ccc1C (configuration not stated)
→ 7%, -14, ., 5, -28%, -15%, .
COc1ccc(S(=O)(=O)N2CCn3c2nc2ccccc23)cc1
→ -49%[inhibitor], 0, 10%, -4, 1.2%, 11%, -2.0
COc1ccc(CCNC(=O)CCc2nnc(Cc3ccc4c(c3)OCO4)o2)cc1
→ 11%[15.4 µM], -4, -2%, 1, -2.4%, 2%, .
Cc1noc(C)c1C(=O)N(C)CC(=O)Nc1ccc(F)c(F)c1F
→ -2%, 1, ., -1, ?, 8%, .
CC(C)NC(=O)C12CC3CC(C1)CC(C(=O)NC(C)C)(C3)C2
→ ?, 15, 21%, 6, -0.4%, 5%, -1.4
CCCNC(=O)N1CCC(c2ccc3c(c2)OCO3)CC1
→ -2%, -14, 4%, -2, -0.2%, 11%, -0.8
O=c1[nH][nH]c(-c2ccccc2)c1C=Nc1cccc(Cl)c1
→ -36%[inhibitor], 7, 10%, 0, -1.7%, -21%, 4.0
NC(=O)CN1C(=O)C(=O)N(Cc2ccc(Cl)cc2)C1=O
→ 14%, 9, 18%, 17, 1.5%, 4%, 1.0
C/C(=N\NC(=O)c1ccc(-c2ccccc2)cc1)c1ccco1
→ -1%[15.4 µM], 3, 14%, -10, ., -10%, 2.3
CCCCCC(=O)Nc1nc(C)c(-c2csc(Nc3cc(Cl)ccc3C)n2)s1
→ ?, 12, 12%, -14, -15%, 9%, 0.1
CCOC(=O)CC(NS(=O)(=O)c1ccc2[nH]cc(C(=O)O)c(=O)c2c1)c1ccc(OCC)c(OC)c1 (configuration not stated)
→ -42%[inhibitor], 4, 8%, -7, ., 5%, 11
COc1ccc(/C=C/c2c(-c3ccc(OC)cc3)sc3cc(OC)c(OC)cc23)cc1
→ ., ., ., -4, 3.9%, 5%, .
O=C(CCn1nnc2ccccc21)OCC(=O)c1ccc(F)cc1
→ -9%, 10, 9%, -9, ., -1%, 2.3
Fc1ccc(-n2cc(CNCCc3cccnc3)c(-c3ccccc3Cl)n2)cc1
→ 3%[15.4 µM], -12, 1%, -6, 28µM*, -12%, -0.5
N#C/C(=C(/O)COC(=O)c1ccc2c(c1)OCCO2)c1nc2ccccc2[nH]1
→ -3%, 13, 10%, -13, -2.1%, 8%, 10
CCOC(=O)c1ccc(S(=O)(=O)N2CCN(C3CC(=O)N(c4ccc(OC)cc4)C3=O)CC2)cc1 (configuration not stated)
→ 10%, ., ., 2, -0.8%, -21%, .
COc1ccccc1N(CC(=O)NCc1ccccc1C)S(=O)(=O)c1ccc(C)cc1
→ -11%, -5, 5%, 10, ., ?, 0.3
O=c1nc(N2CCOCC2)nc2n1CCO2
→ 22%, 0, 7%, 0, 1.0%, 8%, 1.4
COc1ccc([N+](=O)[O-])cc1Nc1ncnc2ccccc12
→ ?, 3, 4%, 1, -0.6%, 6%, 0.5
Cc1ccc(S(=O)(=O)N(CCC(=O)NCc2ccccc2F)c2ccccc2)cc1
→ -26%, -20, ., 9, 0.7%, -8%, .
Cc1ccccc1C(=O)NCC(=O)OCCCOC(=O)CNC(=O)c1ccccc1C
→ -7%[15.4 µM], 15, ., -2, ., 3%, .
O=C1CCC(C(=O)NCc2ccccc2)N1 (configuration not stated)
→ -62%[inhibitor], 0, 15%, -12, ., 5%, 1.2
CCCOc1ccc(CNC(=S)Nc2ccccc2)cc1Cl
→ -9%, ?, 9%, 7, 1.0%, ?, -11
CC(=O)c1ccc(N(C(=O)Cn2nnc3ccccc32)C(C(=O)NC2CCCCC2)c2cn(C)nc2C)cc1 (configuration not stated)
→ -1%, ?, -5%, -2, -4.2%, 4%, 1.8
O=C(N/N=C/c1cccs1)/C(=C/c1ccccc1)NC(=O)c1ccccc1
→ -28%, -13, 5%, -2, -1.5%, 11%, 2.1

# 4 compounds from above, arranged by molecular weight, descending:
# Values run as follows: gsp ag, TRPV1 PAM, Sfp PPTase inh, TRPML1 inh, ClpP mod, gsp antagonist, Menin MLL FP FL
CC(=O)c1ccc(N(C(=O)Cn2nnc3ccccc32)C(C(=O)NC2CCCCC2)c2cn(C)nc2C)cc1 (configuration not stated)
→ -1%, ?, -5%, -2, -4.2%, 4%, 1.8
COc1ccccc1N(CC(=O)NCc1ccccc1C)S(=O)(=O)c1ccc(C)cc1
→ -11%, -5, 5%, 10, ., ?, 0.3
N#C/C(=C(/O)COC(=O)c1ccc2c(c1)OCCO2)c1nc2ccccc2[nH]1
→ -3%, 13, 10%, -13, -2.1%, 8%, 10
O=C(N/N=C/c1cccs1)/C(=C/c1ccccc1)NC(=O)c1ccccc1
→ -28%, -13, 5%, -2, -1.5%, 11%, 2.1
